D2 potentiator – human D2 receptor positive allosteric modulation; P14416; DiscoveRx D2 beta-arrestin cells, luminescence, 90 min; 100% = 57 uM dopamine signal; potentiation, % (concentration not given with the values); actives 0.23% (n = 360,000); active = potentiation of 50% or more; inconclusive = 30% to 50%; inactive = 30% or less;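 also: compound concentration not given in the record; tested on top of an EC20 dose of dopamine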
Target sequence (P14416 whole entry, looked up): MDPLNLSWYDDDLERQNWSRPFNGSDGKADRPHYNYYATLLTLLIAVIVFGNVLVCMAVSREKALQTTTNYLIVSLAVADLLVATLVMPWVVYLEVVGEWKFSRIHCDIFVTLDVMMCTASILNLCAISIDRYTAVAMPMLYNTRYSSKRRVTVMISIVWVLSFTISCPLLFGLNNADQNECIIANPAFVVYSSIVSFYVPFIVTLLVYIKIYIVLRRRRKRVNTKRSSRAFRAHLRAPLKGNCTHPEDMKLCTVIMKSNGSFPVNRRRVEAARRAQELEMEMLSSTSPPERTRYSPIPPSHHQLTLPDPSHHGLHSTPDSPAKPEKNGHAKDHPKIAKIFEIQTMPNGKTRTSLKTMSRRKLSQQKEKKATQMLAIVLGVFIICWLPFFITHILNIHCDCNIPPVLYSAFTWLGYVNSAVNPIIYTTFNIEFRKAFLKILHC
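PathHunter D2 cells, attached overnight at 37 deg C, received compound in DMSO plus dopamine at EC20 (50 nM final) for 90 min at 37 deg C. Beta-arrestin recruitment was read as luminescence after 1 h with detection reagent at ambient temperature.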
Six1-Eya2 blk – Six1/Eya2 interaction inhibition; Q15475+O00167; actives 0.56% (n = 360,000); AlphaScreen GST-Six1/His-Eya2 binding, biochemical; hits give low values; control for the full effect not named in the record; AID 651725; activity change, % (concentration not given with the values); in the data active = activity change below about -65%; inconclusive = about -30% to -65%; inactive = above about -30%; also: % is scaled to controls: 0 for no effect and ±100 for the full control effect
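Homogeneous AlphaScreen proximity assay pairing GST-Six1 with His-tagged Eya2 (added as 5X mix: 250 nM and 500 nM) in 50 mM Tris pH 8.0, 300 mM NaCl, 1 mM TCEP. Glutathione donor and nickel acceptor beads; 1 h, 37 °C, dark.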
Sfp PPTase inh – inhibitors of Bacillus subtilis Sfp phosphopantetheinyl transferase. Q9F4F7. Biochemical Sfp PPTase activity, qHTS. Potency, µM, inactives show max response, negative = inhibition, actives largely listed as inhibitors. actives 3.5% (n = 310,000). AID 1490; active = well fitted inhibition curve with a large enough effect; inconclusive = small, poorly fitted or top-dose-only effect, or another doubt; inactive = no such curve, though single readings can be large or run the other way;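 also: the enzyme is Sfp with the accession as filed and its product quenches rhodamine fluorescence; potency is read from the fitted curve at half-maximal effect; 0% = enzyme reaction without inhibitor and -100% = no enzyme wells; top concentration of the series not given in the record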
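Buffer: 50 mM Hepes-Na pH 7.6, 10 mM MgCl2, 0.01% Nonidet P-40, 0.01% BSA. Enzyme 15 nM, pre-exposed to compound 15 min; substrates then added and fluorescence change tracked over 30 min.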
TRPV1 potentiator – human TRPV1 potentiation | actives 0.02% (n = 320,000) | AID 540277 | potentiation, % at 8.33 µM | Q8NER1 | TRPV1-expressing cells, Fluo-8 calcium influx, capsaicin EC20 potentiation; host cell line not named in the record; control for the full effect not named in the record; active means potentiation above 80%; inconclusive means 30% to 80%; inactive means below 30%; also: 0% is about no effect
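TRPV1-expressing cells were cultured overnight at 35.5C and loaded with Fluo-8 calcium dye for 40 to 90 min at room temperature. After a 10 s baseline, compound was added and calcium influx was read kinetically for 3 min (ex 480/em 520 nm).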
PINK1 modulator – modulators of PINK1 expression; PINK1 immunofluorescence, high-content cytometry, 24 h; Potency, µM (top dose mostly 76.6 µM), for the others: at the highest dose activation (PINK1 increase), usual class: activators; actives 0.2% (n = 410,000); AID 624263; active = well fitted activation curve with a large enough effect; inconclusive = small, poorly fitted or top-dose-only effect; inactive = flat fitted curve, though single readings scatter; cell line not stated here;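 also: potency is read from the fitted curve at half-maximal effect; % of control where 0% means no effect; nearly all actives have a fitted effect of over 65% in size; a mitochondrial uncoupler was the plate control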
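Readout is PINK1 immunofluorescence, quantified alongside mitochondrial, cell and nuclear markers by laser-scanning microplate cytometry. Cells from a stable line were exposed to compound titrations (5 concentrations) for 24 hours, with CCCP controls.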
CtBP-E1A inh – blocks the CtBP interaction with E1A; actives 0.49% (n = 340,000); activity change, % (no concentration beside the values); AlphaScreen GST-E1A/His-CtBP binding, 1536-well; hits give low values; control for the full effect not named in the record; in the data active means activity change below about -65%; inconclusive means about -30% to -65%; inactive means above about -30%; also: % is scaled to controls: 0 for no effect and ±100 for the full control effect; compound concentration not given in the record
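AlphaScreen with 125 nM GST-E1A and 125 nM His-CtBP (5X stocks) in Tris pH 8.0, 300 mM NaCl, BSA, Tween 20, TCEP. Compounds preincubated 2 h at 37 deg C, then glutathione donor/nickel acceptor beads added for 1 h at 37 deg C in dark.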
D2 agonist – activates the human D2 dopamine receptor; P14416; DiscoveRx PathHunter D2 beta-arrestin, luminescence, 90 min; 100% = 57 uM dopamine signal; activation, % (test concentration not listed); actives 0.084% (n = 360,000); AID 624465; in the data active = activation above about 40%; inconclusive = about 15% to 40%; inactive = below about 15%; also: compound concentration not given in the record; the text of the record calls up to 30% inactive
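DiscoveRx PathHunter D2 beta-arrestin cells (2,100/well) attached overnight, then compound-stimulated 90 min at 37 C in HBSS/10 mM HEPES/0.1% Tween-20 buffer; beta-galactosidase complementation read by luminescence after 1 h at ambient temperature. Dopamine 57 uM final (EC100) as control.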
Starred values were filed as active, the others as inactive; u = inconclusive; x = no result given; & = joins results of further samples; [ ] = dose if it differs, or a comment.

Under each structure: D2 potentiator, Six1-Eya2 blk, Sfp PPTase inh, TRPV1 potentiator, PINK1 modulator, CtBP-E1A inh, D2 agonist
O=C(CC(c1ccco1)C1CCCCC1=O)c1ccccc1 (centres undefined)
 : -1, -2, -16%, -5, x, 6, -1.5
CCCN1CCN(C(=O)c2c(Cl)cnn2C)CC1
 : -11, 3, 3%, 5, -0.2%, 0, -1.3
Cc1ccccc1C(=O)N1CCC(C(=O)NN2C(=O)NC3(CCCCC3)C2=O)CC1
 : -1, -1, x, -2, 1.1%, -24, -2.2
CCC1Nc2ncnc(N3CCCCC3)c2N(Cc2ccc(C)cc2)C1=O (centres undefined)
 : -15&-16, 2&-3, x, x, 4.8%&4.7%, -1&-1, -5.2&-13
Cc1cc(C)cc(NC(=O)c2ccc(N3C(=O)C4CCCCC4C3=O)cc2)c1 (centres undefined)
 : -25, -4, 8%, 0, 4.0%, -4, -5.4
COC(=O)c1ccc(NC(=S)NNC(=O)c2ccccc2)cc1
 : -29, -2, u, -6, 0.4%, -16, -12
O=[N+]([O-])c1ccccc1/C=C/C=N/Nc1nc(N2CCCCC2)nc(N2CCCCC2)n1
 : -6, 1, u, -14, 0.1%, 2, -3.1
CC1CN(Cc2nc3c(c(=O)n(C)c(=O)n3C)n2CCN2CCOCC2)CC(C)O1 (centres undefined)
 : 1, 0, -20%, 6, 2.3%, 0, -2.8
CC1(C)CCSC(/C=C/c2ccccc2)=N1
 : -39, 12, 23%, -20, -4.0%, 0, -2.6
S=C(NCCc1c[nH]c2ccccc12)NC1CC1
 : -4, -9, 15%, 16, 0.2%, 3, 0.1
O=C(O)Cc1ccc(NC(=O)c2cccc(NC(=O)c3ccco3)c2)cc1
 : 0, 15, -6%, 5, -1.1%, -1, -0.7
O=C(NCCO)C(=O)c1c(-c2ccccc2)cc2ccccn12
 : -3, 0, 20%, -3, 0.9%, 5, -1.0
CCN(CC)S(=O)(=O)c1cnccc1N1CCN(c2cccc(Cl)c2)CC1
 : 9, 2, -10%, 0, 12%, 5, 1.0
Cc1ccc(-c2cn(-c3ccc(OC(F)F)cc3)c3[n+]2CCCCC3)cc1
 : -14, -7, -16%, -9, 2.5%, -5, -4.9
Cc1ccc(-c2nc3ncccn3c2Nc2ccc3c(c2)OCCO3)o1
 : u, -11, 45µM*, -21, -1.3%, -8, 8.2
COc1ccc(C2=NOC(Cn3nc(C(=O)O)cc3-c3ccccc3)C2)cc1 (centres undefined)
 : -2, 1, 27%, -5, -0.3%, 3, -3.3
O=C1c2cccnc2C(=O)N1C1CCCCC1
 : -5, -2, 23%, 13, 3.9%[38.3 µM], 1, -0.8
CCCCOC(=O)c1ccc(NC(=O)COC(=O)c2ccc3ncsc3c2)cc1
 : -11, -7, x, 14, -0.4%, -13, 3.2
CS(=O)(=O)N(CC(=O)N1CCc2ccccc2C1)c1cccc([N+](=O)[O-])c1
 : -6, -3, 15%, -9, -0.1%, 0, -4.9
Cc1cccc(C)c1NC1=NC(=S)N(c2ccc(N(C)C)cc2)C1(C)C
 : -2, -8, 1%, -3, -0.8%, -13, 1.1
Cn1c(=O)oc2cc(S(=O)(=O)NCCC(=O)NCc3ccc(F)cc3)ccc21
 : -14, 0, 17%, 9, -1.4%&2.0%, 3, -7.5
OC(c1ccccn1)C1CCN(Cc2nc(C(c3ccccc3)c3ccccc3)no2)CC1 (centres undefined)
 : -11, 11, -9%, 7, -0.5%, x, -1.8
Cc1ccc(NS(=O)(=O)c2ccc(OCC(=O)NCC3CCCO3)cc2)cc1 (centres undefined)
 : -9, 2, 2%, -4, -1.0%, 4, -3.2
COc1cccc(-c2nc(CS(=O)(=O)CC(=O)NCCc3ccc(OC)cc3OC)c(C)o2)c1
 : -12, -15, 1%, -6, 0.3%&-1.0%, -18, -3.2
Cc1ccnc(SCC(=O)Nc2cccc(S(=O)(=O)N3CCOCC3)c2)n1
 : -3, 5, x, x, 1.2%, 11, -1.6
Cc1cnc(SCc2ccc(Cl)cc2Cl)[nH]c1=O
 : -2, 2, 17%, 9, 3.0%, x, -0.7
COc1cc(C(=O)NNC(=O)CNC(=O)c2ccc(Br)o2)cc(OC)c1OC
 : -5, 16, 23%, -4, -2.8%, 1, 1.7
COc1ccc([N+](=O)[O-])cc1N(CC(O)CN(CC(C)C)CC(C)C)S(=O)(=O)c1ccccc1 (centres undefined)
 : -21, -13, 12%, -23, -4.8%[38.3 µM], -3, 0.8
Cc1cc(C)nc(NC(=O)Cc2cccs2)n1
 : -8, 4, -3%, -11, 0.8%, -2, -2.2
C=CCNc1oc(-c2ccc(OC)cc2)nc1C#N
 : -10, -3, 2%, u, 2.0%[38.3 µM], -3, -2.2
COc1ccc(-c2cccc(-c3cc(=O)oc4ccc(C(C)(C)C)cc34)c2)cc1
 : 1, -1, -7%, x, 6.9%, -12, -0.3
COc1ccc(Cn2c(-c3ccco3)nc3oc4cc(OC)ccc4c(=O)c3c2=O)cc1
 : -3, 8, 5%, 14, 19%, -9, -3.7
CC1CCCc2sc3ncn(N)c(=N)c3c21 (centres undefined)
 : 5, -2, 13%, -5, -1.5%, -4, -1.3
CCN1CCN(C(=O)c2ccc3c(c2)N(Cc2ccc(C)cc2)CCS3)CC1
 : -18, -17, 6%, -7, -0.8%, x, -0.7
CCOC(=O)Cc1csc(NC(=O)CSc2nnc(C(C)C)n2CC)n1
 : -17, 2, 5%, 7, -0.4%, 4, -0.5
O=C(Nc1ccccc1Cl)C1CC(=O)N(Cc2ccco2)C1 (centres undefined)
 : 0, 7, x, -10, -0.6%, 3, -0.9
O=C(NCCNC(=O)c1ccccc1F)c1ccccn1
 : -9, -6, 2%, 4, 7.2%, 3, -2.5
CCCn1c(SCC(=O)Nc2ccccc2Oc2ccccc2)n[nH]c1=O
 : 3, 8, -22%, 3, -0.8%, 9, 2.5
Cc1ccc(S(=O)(=O)Nc2c(C(=O)O)[nH]c3ccccc23)cc1C
 : -5, -2, 9%, 8, 0.1%, -1, 5.8
CN(C)c1ccc(/C=C(\C#N)C(=O)Nc2nc3c(s2)CCN(Cc2ccccc2)C3)cc1
 : -5, 0, 13%, -4, u, 9, -3.4
CC(=O)OCC(OC(C)=O)C(OC(C)=O)C(OC(C)=O)C(=O)Nc1cccc(C)c1 (centres undefined)
 : -7, 2, 12%, -3, 0.4%, 0, -2.7
COC(=O)CCCC1=CC2=CC(=O)C(C)(OC(=O)c3cccs3)C(=O)C2=CN1C1CCCC1 (centres undefined)
 : 9, -2, -1%&-10%, -38, 2.6%, -2, 6.7
COc1cc2[nH]c(=O)n(CCC(=O)N3CCN(c4cc(Cl)ccc4C)CC3)c(=O)c2cc1OC
 : -16, -16, -4%, -22, -4.0%, -15, -1.6
COc1nc(NC2CCCCC2)nc(NC(C)(C)C)n1
 : -8, 12, x, x, 6.6%, 0, -4.7
CC(=O)Nc1nonc1C(=O)N1CCC(C)CC1
 : 3, 2, -13%, u, 7.4%[38.3 µM], 4, -1.0
Cc1cc(Cl)ccc1OC(C)C(=O)Nc1cnn(CCCC(=O)O)c1 (centres undefined)
 : -3, 6, -4%, -4, 0.3%, 8, -5.4
C=CCOC(=O)C1=C(C)NC(=S)NC1/C=C/c1ccccc1 (centres undefined)
 : -18, -25, -9%, -14, 0.8%[38.3 µM], -19, -2.9
Cc1cc(C)cc(NC(=O)CSc2nc3ccccc3nc2N2CCCC2)c1
 : -6, 14, -4%, 16, 13%, 23, -3.1
CCN(CC)S(=O)(=O)c1ccc(NC(=S)Nc2ccc(F)cc2)cc1
 : 2, 0, 5%, -7, 0.7%, x, 3.6
CC1CCCN(C(=O)COC(=O)CNS(=O)(=O)c2ccc3ccccc3c2)C1 (centres undefined)
 : -15, 4, x, 14, 1.2%, -1, -6.5
O=C(Cn1cc(C(=O)C2CC2)c2ccccc21)NCc1ccccc1
 : -10, 1, 1%, -22, 2.5%, -1, -3.8
N#C/C(=C(/O)COC(=O)c1cccnc1Cl)c1nc2ccccc2[nH]1
 : 4, -12, 7%, 0, 4.7%, -15, 1.5
C=CCNc1nc(Cl)nc(NC2CCCCC2)n1
 : -4, -11, 11%, -8, -1.7%, 5, -1.3
Fc1ccc(-c2nc(-c3cccs3)[nH]c2-c2ccc(F)cc2)cc1
 : -18, -10, 6%, 3, u, -4, 3.0
COc1ccc(C(CC(=O)c2ccccc2)CC(=O)c2ccccc2)cc1
 : -2, 4, 3%, 3, 2.3%, 15, -3.9
COc1ccccc1C(O)(C(=O)NN(C(=O)c1ccccc1)c1ccccc1C)c1cccs1 (centres undefined)
 : -6, 2, 18%, -4, 1.6%, -1, -5.3
CCc1ccc(CN2CCN(c3ncccn3)CC2)cc1
 : u, 0, u, -2, 5.2%, x, 75*
CCN(c1ccccc1)S(=O)(=O)c1ccc(C(=O)N(CCCN(C)C)c2nc3c(C)cccc3s2)cc1
 : -27, -29, -15%, -15, -1.7%, u, -2.5
COc1ccccc1C(=O)C1CCCN(C(=O)c2cccnc2SC)C1 (centres undefined)
 : 2, -1, 13%, -4, -0.6%, 4, -2.0
COc1cc2c(cc1OC)C(C(=O)NC(C)c1ccccc1)CC(=O)N2 (centres undefined)
 : 1, 5, 2%, 2, 0.9%, 6, 5.3

4 of these compounds in a different format.
CC1CN(Cc2nc3c(c(=O)n(C)c(=O)n3C)n2CCN2CCOCC2)CC(C)O1 (centres undefined)
  D2 potentiator: 1; Six1-Eya2 blk: 0; Sfp PPTase inh: -20%; TRPV1 potentiator: 6; PINK1 modulator: 2.3%; CtBP-E1A inh: 0; D2 agonist: -2.8

CC1(C)CCSC(/C=C/c2ccccc2)=N1
  D2 potentiator: -39; Six1-Eya2 blk: 12; Sfp PPTase inh: 23%; TRPV1 potentiator: -20; PINK1 modulator: -4.0%; CtBP-E1A inh: 0; D2 agonist: -2.6

S=C(NCCc1c[nH]c2ccccc12)NC1CC1
  D2 potentiator: -4; Six1-Eya2 blk: -9; Sfp PPTase inh: 15%; TRPV1 potentiator: 16; PINK1 modulator: 0.2%; CtBP-E1A inh: 3; D2 agonist: 0.1

O=C(O)Cc1ccc(NC(=O)c2cccc(NC(=O)c3ccco3)c2)cc1
  D2 potentiator: 0; Six1-Eya2 blk: 15; Sfp PPTase inh: -6%; TRPV1 potentiator: 5; PINK1 modulator: -1.1%; CtBP-E1A inh: -1; D2 agonist: -0.7

High-throughput results (PubChem BioAssay)

Compounds as they come; any-hit rate near 3.7%.
